Compound activity (PubChem)
E coli growth – blocks Escherichia coli growth; OD600, 23 h; active compounds read low; OD600 absorbance (test concentration not listed); 0.21% of 330,000 active; AID 1053175;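 active means OD600 absorbance below the run mean of sample wells minus 3.6 SD, in any replicate, cut at about 0.56 in these data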;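 further: stock transfer was 300 nL into about 60 µL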
rRNA inh HTS – selective bacterial rRNA inhibition in E. coli. GFP signal change (wild-type ribosome), % (test concentration not listed). 1.6% of 350,000 active. E. coli WT GFP vs humanized-ribosome RFP mutants, fluorescence, 24 h; active compounds read low; DMSO median 0, no signal -100. AID 720706;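 active means significant combined selectivity score with lowered wild-type GFP, culture density cut under 30%, mutant RFP and density less affected; inactive means any of these conditions unmet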; further: one replicate is shown; some compounds called inactive have numbers as strong as hits
HNF4A DNA FP – change in binding of human HNF4 alpha to DNA; HNF4a-FITC DNA binding, fluorescence polarization, 1 h; 0.3% of 360,000 active; activity change, % at 10 µM; P41235; in the data active means activity change above about 30%, passing the limit was not always enough;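 further: controls were the assay level and a saturating level of protein; the project sought stronger binding though the title names inhibitors; some compounds called inactive have numbers as strong as hits; positive values seem to mean higher polarization but the record does not say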
UCH37 DUB inh – blocks the human deubiquitinase UCH37. inhibition, % (concentration not given with the values). 0.33% of 330,000 active. AID 588478. purified proteasome/UCH37, Ub-AMC cleavage fluorescence. Q9Y5K5;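 active means mean of two replicates above 20%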;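 further: 0% = compound-free wells with enzyme and 100% = wells lacking proteasome; stock transfer was 100 nL into about 20 µL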
Target sequence (Q9Y5K5 whole entry, looked up): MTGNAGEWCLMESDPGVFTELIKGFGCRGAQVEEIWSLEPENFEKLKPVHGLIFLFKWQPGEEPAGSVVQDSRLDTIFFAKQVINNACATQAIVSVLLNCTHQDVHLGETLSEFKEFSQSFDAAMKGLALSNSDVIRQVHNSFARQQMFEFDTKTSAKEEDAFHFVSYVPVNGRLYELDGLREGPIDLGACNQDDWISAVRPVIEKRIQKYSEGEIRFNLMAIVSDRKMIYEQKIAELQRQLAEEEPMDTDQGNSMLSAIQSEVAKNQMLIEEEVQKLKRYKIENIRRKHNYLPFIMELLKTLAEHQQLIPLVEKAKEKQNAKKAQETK
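Reagent: Ub-AMC substrate; assay system: Proteasome-associated human UCH37 deubiquitinase; controls: no-proteasome and no-compound wells; read-out: % inhibition of Ub-AMC cleavage fluorescence; timing: 30 min preincubation with enzyme, 25 min cleavage at room temperature; signal: AMC fluorescence from Ub-AMC cleavage, excitation 355 nm, emission 460 nm; buffer or medium: Tris-HCl pH 7.4 plus ovalbumin, ATP-MgCl2, DTT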
FGF22 binding – shifts melting point of recombinant human FGF22; 1.5% of 340,000 active; calls only at 9.99 µM; recombinant FGF22 thermal shift, SYPRO orange fluorescence; percent of sucrose octasulfate shift, DMSO zero; Q9HCT0;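 active means melting point raised past a set limit in the mean and every replicate; inconclusive means no clear call; three in four hits are not shown here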
Target sequence (Q9HCT0 whole entry, looked up): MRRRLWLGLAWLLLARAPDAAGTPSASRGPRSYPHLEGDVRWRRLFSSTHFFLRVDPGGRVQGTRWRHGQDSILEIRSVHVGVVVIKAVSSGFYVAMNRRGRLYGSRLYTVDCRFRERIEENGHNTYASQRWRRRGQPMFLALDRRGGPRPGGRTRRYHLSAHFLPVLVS
B2AR ag – agonists of human beta-2 adrenergic receptor inducing internalization. P07550. Am2.2-beta2AR cells, FAP receptor internalization, flow cytometry; reference of the scale not given here. response, % (concentration not given with the values). 0.43% of 340,000 active;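 active means response above a set limit, near 3 SD of response in nonfluorescent compounds, cut at about 42% in these data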;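 further: stock transfer was 100 nL into about 11 µL; a reference agonist was the positive control; negative values mostly stem from fluorescent compounds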
ALR H2O2 inh – inhibitors of human sulfhydryl oxidase ALR. P55789. purified ALR, DTT oxidation, H2O2 HRP-luminol luminescence. inhibition, % (concentration not given with the values). 3.8% of 290,000 active;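 active means mean and each replicate at 75% or more; inconclusive means only one of the two met; inactive means neither met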;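 further: stock transfer was 7.5 nL into about 7.5 µL; 0% = neutral wells and 100% = wells with inactivated enzyme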
Target sequence (P55789 whole entry, looked up): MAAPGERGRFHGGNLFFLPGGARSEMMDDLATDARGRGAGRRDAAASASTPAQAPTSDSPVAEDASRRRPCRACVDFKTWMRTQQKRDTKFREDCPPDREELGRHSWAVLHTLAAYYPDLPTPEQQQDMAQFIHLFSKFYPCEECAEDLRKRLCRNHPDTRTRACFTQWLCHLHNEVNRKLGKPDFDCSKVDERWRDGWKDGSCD
rRNA inh HTS OD600 – second read-out of rRNA inh HTS, no call of its own (marks repeat the call); OD600 change, %; measured here: OD600 growth;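 optical density of the mix in the first replicate; 0 = DMSO median and -100 = no signal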
rRNA inh HTS RFP – second read-out of rRNA inh HTS, no call of its own (marks repeat the call); RFP signal change, %; measured here: RFP humanized mutant strains;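 first replicate; 0 = DMSO median and -100 = no signal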
Starred values were filed as active, the others as inactive; i = inactive; ? = inconclusive; nt = no result given. Not all compounds are listed, so the mix of outcomes need not match the whole.

SMILES | E coli growth | rRNA inh HTS | rRNA inh HTS OD600 | rRNA inh HTS RFP | HNF4A DNA FP | UCH37 DUB inh | FGF22 binding | B2AR ag | ALR H2O2 inh
O=C(Nc1nn[nH]n1)c1cc(-c2ccc(Cl)c(Cl)c2Cl)nc2ccccc12 | 0.7 | -2 | 3 | 0.4 | -4.9 | 2.2 | i | 0 | -2
COc1ccc(NS(=O)(=O)c2cc(N)ccc2N2CCOCC2)cc1 | 0.63 | -5 | -4 | -1.9 | 1.4 | 0.6 | i | 3 | 11
Cc1nc2scc(C)n2c(=O)c1S(=O)(=O)NCc1ccccc1Cl | 0.69 | 13 | 16 | 2.9 | -12 | -133 | i | 3 | -2
CSc1nc2ccc(S(=O)(=O)Nc3c(C)n(C)n(-c4ccccc4)c3=O)cc2s1 | 0.68 | nt | nt | nt | 0.8 | 5.4 | nt | -3 | 99*
Cc1ccc(S(=O)(=O)N2CCCC2C(=O)NCc2ccccc2F)cc1 (stereo unspecified) | 0.68 | 6 | 8 | 3.6 | -0.1 | 5.0 | i | 7 | 9
COC(=O)C1=C(C)NC(=O)NC1c1ccc(-c2ccc(Cl)cc2)o1 (stereo unspecified) | nt | 8 | 21 | 1.6 | 1.9 | nt | i | -3 | 6
Cn1cc(C(=O)C(=O)N2CCN(c3ccccc3)CC2)c2ccccc21 | 0.67 | 11 | 3 | 0.0 | -0.7 | 1.4 | i | -3 | -5
CN1/C(=C\C(=O)COC(=O)CNC(=O)c2ccccc2F)C(C)(C)c2ccccc21 | 0.69 | 3 | -1 | 11 | -0.5 | -3.3 | i | 11 | -3
O=S(=O)(Nc1ncnc2c1oc1ccccc12)c1ccc(Cl)s1 | 0.7 | nt | nt | nt | -0.4 | 2.4 | nt | 7 | 42
CC1=C(C(=O)N2CCOCC2)CC(CC(=O)NCCc2ccccn2)C(=O)N1CCC1=CCCCC1 (stereo unspecified) | nt | 4 | 10 | -0.2 | -4.5 | nt | i | nt | nt
COc1cccc(CNC(=O)CCC(=O)n2ncc3cc(C)ccc32)c1OC | 0.7 | 10 | 17 | -1.5 | 4.2 | 4.6 | i | 11 | 1
O=C(COC(=O)COc1ccc(Cl)cc1Cl)NC1CC1 | 0.69 | 12 | 3 | 1.6 | 0.1 | 2.0 | i | -3 | -7
COc1ccc(C2C(C(=O)Nc3cccc(C)n3)CCC(=O)N2c2ccc(OC)cc2)cc1 (stereo unspecified) | 0.75 | nt | nt | nt | nt | 0.7 | nt | nt | 23
CCOC(=O)C1CCCN(c2cc(C)nc3cc(-c4ccc(F)cc4)nn23)C1 (stereo unspecified) | 0.62 | nt | nt | nt | -4.7 | -29 | nt | -4 | -1
CCOc1ccc(/C=C/C(=O)OCC(=O)Nc2cccc(S(=O)(=O)N3CCCC3)c2)cc1 | 0.71 | -10 | 0 | 2.4 | 1.3 | -0.9 | i | -4 | -6
CCN(CC)S(=O)(=O)c1cc(NC(=O)CNc2cccc(S(=O)(=O)N3CCOCC3)c2)ccc1C | 0.67 | -4 | 0 | 4.0 | 2.5 | 2.1 | i | 4 | 3
CCOC(=O)N1CCN(C(=O)CNC(=O)C23CC4CC(CC(C4)C2)C3)CC1 | 0.65 | -1 | -5 | -1.0 | -1.1 | 1.7 | i | 0 | 3
CCOc1ccc(C(=O)Nc2ccc(C(=O)N3CCOCC3)cc2)c(OCC)c1 | 0.72 | -3 | 2 | 0.3 | 3.2 | 1.2 | i | 6 | nt
COc1cccc(C2NC(=O)CCC2[N+](=O)[O-])c1 (stereo unspecified) | 0.69 | 12 | 6 | 9.8 | 1.2 | 0.3 | i | 4 | -6
O=[N+]([O-])c1cc([N+](=O)[O-])c(Oc2ccc(F)cc2)cc1NN1CCCCC1 | 0.71 | 0 | -9 | 5.1 | -5.7 | 7.2 | i | 4 | 2
CCCCn1nnnc1SCC(=O)c1cc(Cl)ccc1OC | 0.71 | nt | nt | nt | -2.3 | 1.3 | nt | -23 | 32
CC(=O)OC(C(=O)N1CCN(c2ccc(F)cc2)CC1)c1ccccc1 (stereo unspecified) | 0.75 | nt | nt | nt | -1.3 | -1.3 | nt | 8 | 59
CCCCC(=O)Nc1cccc(NC(=O)c2ccc(Br)o2)c1 | 0.63 | nt | nt | nt | -1.9 | -0.5 | nt | -11 | 1
CC(O)CNc1ncnc2cc(-c3ccc(F)cc3)sc12 (stereo unspecified) | 0.63 | -3 | -28 | -2.1 | 0.5 | -145 | i | -4 | 49
CN(Cc1c(F)cccc1Cl)C(=O)c1ccc(NC(=O)CC2SC(N3CCCC3)=NC2=O)cc1 (stereo unspecified) | 0.66 | 6 | 1 | 0.9 | 2.6 | -0.1 | i | -6 | -5
CC(=O)Nc1c(O)nc(SCC(=O)Nc2nnc(SCc3ccccc3)s2)[nH]c1=O | 0.7 | -5 | -12 | 27 | -5.8 | 4.7 | nt | 6 | 74
COc1ccc(NC(=O)c2c(NC(=O)CNCc3ccco3)sc3c2CCC3)c(OC)c1 | 0.72 | nt | nt | nt | 0.3 | -2.4 | nt | -12 | -13
COc1ccc(Oc2c(C(F)(F)F)oc3cc(OCC(=O)O)ccc3c2=O)cc1 | 0.67 | -6 | -8 | -2.6 | 1.4 | 5.0 | i | 2 | 4
COc1ccc(N2C(=O)[C@@H]3[C@H](C2=O)[C@H]2c4ccccc4C=CN2[C@@H]3C(C)=O)cc1 | 0.68 | -4 | 2 | 9.3 | -9.9 | 37* | i | -1 | -11
COc1ccc(OC)c(NC(=O)COC(=O)Cc2ccc(-c3ccccc3)cc2)c1 | 0.74 | nt | nt | nt | 2.2 | 0.7 | nt | 2 | -11
O=C(c1ccc(Cl)cc1)c1nnc(-c2ccncc2)o1 | 0.71 | nt | nt | nt | 3.3 | 0.7 | nt | -10 | -2
NC(=O)COC(=O)Cc1coc2cc3c(cc12)CCC3 | 0.71 | -14 | -6 | 1.1 | 0.6 | 0.4 | i | 6 | 23
CC(=O)Nc1ccc(SC[C@H](C)CN2CC[C@H](C(C)(C)C)CCC2=O)cc1 | nt | -21 | -29 | 11 | -0.4 | 1.5 | i | -3 | 99*
O=C(Nc1ccc2c(c1)OCO2)c1noc2c1CCCCC2 | 0.7 | nt | nt | nt | -4.3 | 0.2 | nt | -8 | ?
COC1CCN(C(=O)c2ccc3oc(Cc4ccc(Cl)cc4)nc3c2)CC1 | 0.7 | -3 | -8 | -0.7 | 3.1 | 6.4 | i | 2 | -1
O=C1CSC(=S)N1/N=C/c1ccc2c(c1)OCCO2 | nt | -1 | 4 | 4.2 | -1.2 | nt | i | 17 | nt
CCOc1cc(C2NC(=O)NC(O)(C(F)(F)F)C2C(=O)c2ccccc2)ccc1OC (stereo unspecified) | 0.68 | nt | nt | nt | 1.6 | 0.1 | nt | 6 | -10
O=C(CC(=O)N/N=C\c1ccc([N+](=O)[O-])cc1)NCCc1ccccc1 | nt | -1 | 3 | -2.0 | 0.7 | nt | i | 0 | -2
O=C1CC(/C=C/c2ccccn2)=Nc2ccccc2N1 | 0.67 | 75 | 12 | 10 | 6.5 | 7.6 | i | -22 | 0
CCOC(=O)c1cnc2c(C)c(Cl)ccc2c1Nc1ccc(S(=O)(=O)Nc2ncccn2)cc1 | 0.71 | nt | nt | nt | nt | -129 | nt | nt | 3

Profiles as entered above. Order of values: E coli growth	rRNA inh HTS	rRNA inh HTS OD600	rRNA inh HTS RFP	HNF4A DNA FP	UCH37 DUB inh	FGF22 binding	B2AR ag	ALR H2O2 inh
Shown for `CCCCC(=O)Nc1cccc(NC(=O)c2ccc(Br)o2)c1` → 0.63	nt	nt	nt	-1.9	-0.5	nt	-11	1
Shown for `O=C(Nc1ccc2c(c1)OCO2)c1noc2c1CCCCC2` → 0.7	nt	nt	nt	-4.3	0.2	nt	-8	?
Shown for `CCCCn1nnnc1SCC(=O)c1cc(Cl)ccc1OC` → 0.71	nt	nt	nt	-2.3	1.3	nt	-23	32

(cont.)
SMILES | E coli growth | rRNA inh HTS | rRNA inh HTS OD600 | rRNA inh HTS RFP | HNF4A DNA FP | UCH37 DUB inh | FGF22 binding | B2AR ag | ALR H2O2 inh
COc1cc(NCCC(=O)c2cccs2)c(OC)cc1Cl | 0.71 | -12 | -9 | 4.7 | 1.7 | 3.8 | i | 8 | 100*
CC1(C)CC(=O)C=C(NCc2cccnc2)C1 | 0.7 | nt | nt | nt | 1.6 | 1.5 | nt | -8 | 0
COC(=O)[C@H](Cc1ccccc1)NC(=O)N1CCC(C)CC1 | 0.71 | nt | nt | nt | 1.9 | -0.9 | nt | 11 | -27
COc1cccc(CN(C)C(=O)c2ccc3c(=O)n4c(nc3c2)CCC4)c1 | 0.64 | 9 | 1 | 0.6 | 4.8 | 1.2 | i | 3 | 1
CN(Cc1ccccc1F)c1cc2c(c3c1ccn3C)C1CCC2C1 (stereo unspecified) | nt | -15 | -8 | -5.5 | -0.7 | nt | i | nt | nt
O=C(COc1ccc(Cl)cc1)Nc1ccc(NC(=O)c2ccco2)cc1 | 0.72 | 8 | 6 | 1.6 | -0.6 | 1.4 | i | -31 | 4
Cc1cc(C)nc(SCC(=O)N/N=C\c2sccc2C)n1 | nt | nt | nt | nt | 1.2 | nt | nt | 9 | -7
COC(=O)Cc1ccc(NC(=O)c2ccc(C(C)(C)C)cc2)cc1 | 0.69 | nt | nt | nt | -2.0 | 6.5 | nt | 11 | nt
O=C(Nn1c(Cc2cccs2)nc2ccccc2c1=O)c1ccc(F)c(F)c1 | 0.71 | nt | nt | nt | -0.7 | 3.3 | nt | 6 | -23
CCCCc1c(C)nn(-c2nnc3c4ccccc4n(C)c3n2)c1C | 0.72 | nt | nt | nt | 5.0 | -0.4 | nt | 4 | -3
Cc1nnc2ccc(-c3cccc(NS(=O)(=O)c4ccccc4[N+](=O)[O-])c3)nn12 | 0.62 | 3 | -1 | 0.0 | 0.5 | 4.6 | i | 11 | -9
Cc1ccc(Nc2cc(C)nc3ncnn23)c(Cl)c1 | 0.66 | -2 | 6 | -4.8 | -1.1 | 0.8 | i | -12 | -6
CN(CC(=O)Nc1cccc(F)c1)C(=O)CNS(=O)(=O)c1ccc(N(C)C)c([N+](=O)[O-])c1 | 0.66 | -1 | 4 | -2.0 | 0.5 | 3.2 | i | -8 | 2
O=C(c1cccc2ccccc12)N1CCN=C1SCc1ccc([N+](=O)[O-])cc1 | 0.75 | -2 | 3 | 0.6 | -1.1 | 2.0 | i | 1 | 98*
Cc1ccc(C(=O)Nc2cccnc2Cl)cc1Cl | 0.63 | -7 | -1 | -2.0 | 1.5 | 1.9 | i | -4 | nt
Cc1cc(C(F)F)n2ncc(C(=O)N3CCc4ccccc4C3)c2n1 | 0.76 | nt | nt | nt | 6.5 | 2.9 | nt | -3 | -8
COc1ccc(NC(=O)c2ccc3ccccc3c2OC)cc1 | 0.67 | -11 | -3 | -3.1 | 0.0 | 0.8 | i | -3 | -7
CC(C)CCN(C(=O)c1cc(=O)[nH]c2ccccc12)c1c(N)n(Cc2ccccc2)c(=O)[nH]c1=O | 0.63 | 8 | 12 | 1.0 | -1.4 | 1.9 | i | -3 | -2

Structural class: the entries above containing a tert-butyl group
SMILES | E coli growth | rRNA inh HTS | rRNA inh HTS OD600 | rRNA inh HTS RFP | HNF4A DNA FP | UCH37 DUB inh | FGF22 binding | B2AR ag | ALR H2O2 inh
CC(=O)Nc1ccc(SC[C@H](C)CN2CC[C@H](C(C)(C)C)CCC2=O)cc1 | nt | -21 | -29 | 11 | -0.4 | 1.5 | i | -3 | 99*
COC(=O)Cc1ccc(NC(=O)c2ccc(C(C)(C)C)cc2)cc1 | 0.69 | nt | nt | nt | -2.0 | 6.5 | nt | 11 | nt
